Assay outcomes as filed in PubChem.
Calb FLC: C. albicans growth modulation with fluconazole. C. albicans CaCi-2 (fluconazole-resistant clinical isolate) + fluconazole, Alamar Blue growth, 48 h. growth inhibition, % (concentration not given with the values). 0.57% of 300,000 active. AID 1979;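 active = most replicates above 75%; inconclusive = exactly half above 75%; inactive = most below 75%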;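 also: all wells also contain fluconazole at 8 µg/ml as a sub-toxic cotreatment; 0% = median of DMSO wells and 100% = median of geldanamycin control wells; wells of about 8 µL received 7.5 nL stock; the first replicate is given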
Beta apoptosis: blocks beta cell apoptosis | 0.8% of 300,000 active | INS-1E cytokine-induced death, ATP luminescence, 48 h; percent of positive-control rescue, neutral wells zero | AID 435005 | protection from apoptosis, % (concentration not given with the values);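 active = all replicates at 75% or more, or half of them and the mean; inconclusive = half reach 75% but not the mean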;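 also: 0% = cytokine-treated negative control wells and 100% = positive control rescue; higher means more ATP so stronger rescue from cytokine killing; wells of about 40 µL received 100 nL stock; the first replicate is given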
Vif A3G: HIV-1 Vif–A3G interaction blockers – biochemical, TR-FRET, GST-Vif 1-94, biotin-A3G peptide, dose response retest, primary screen (AID 1117319) | TR-FRET GST-Vif / biotin-A3G peptide binding; higher % means a stronger effect; test concentration not given here; strong numbers were not always called active | one-dose inhibition, %; IC50 in µM for titrated hits | 0.57% of 260,000 active;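 active = above the screen mean plus three standard deviations and confirmed in dose response; inconclusive = results disagree or hit not tested in dose response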;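 also: Vif residues 1-94 fused to GST binding biotinylated APOBEC3G peptide 110-148; 0% = full assay without inhibitor and 100% = GST in place of GST-Vif; retest series ran down from 100 µM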
Ecoli rRNA inh: inhibits bacterial ribosomal RNA function over humanized ribosomes | E. coli WT GFP vs humanized-ribosome RFP mutants, fluorescence, 24 h; hits give low values; DMSO median 0, no signal -100 | GFP signal change (wild-type ribosome), % (test concentration not listed) | 1.6% of 350,000 active;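 active = significant combined selectivity score with lowered wild-type GFP, culture density cut under 30%, mutant RFP and density less affected; inactive = any of these conditions unmet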; also: one replicate is shown; some compounds called inactive have numbers as strong as hits
AF4-AF9 inh: MLL-AF4/AF9 protein interaction inhibition; P42568; AlphaScreen, biotin-AF4 peptide binding to FLAG-AF9; inhibition, % at 10 µM; 0.47% of 350,000 active;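 active = every replicate reaching a set inhibition limit, whatever the replicate mean, cut at about 25% in these data; inconclusive = mean inhibition reaches that limit but some replicates miss it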;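 also: 0% = plate neutral control median and 100% = total signal loss; the record names both 10 and 1 µM as test concentration; the first replicate is given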
Target sequence (P42568 whole entry, looked up): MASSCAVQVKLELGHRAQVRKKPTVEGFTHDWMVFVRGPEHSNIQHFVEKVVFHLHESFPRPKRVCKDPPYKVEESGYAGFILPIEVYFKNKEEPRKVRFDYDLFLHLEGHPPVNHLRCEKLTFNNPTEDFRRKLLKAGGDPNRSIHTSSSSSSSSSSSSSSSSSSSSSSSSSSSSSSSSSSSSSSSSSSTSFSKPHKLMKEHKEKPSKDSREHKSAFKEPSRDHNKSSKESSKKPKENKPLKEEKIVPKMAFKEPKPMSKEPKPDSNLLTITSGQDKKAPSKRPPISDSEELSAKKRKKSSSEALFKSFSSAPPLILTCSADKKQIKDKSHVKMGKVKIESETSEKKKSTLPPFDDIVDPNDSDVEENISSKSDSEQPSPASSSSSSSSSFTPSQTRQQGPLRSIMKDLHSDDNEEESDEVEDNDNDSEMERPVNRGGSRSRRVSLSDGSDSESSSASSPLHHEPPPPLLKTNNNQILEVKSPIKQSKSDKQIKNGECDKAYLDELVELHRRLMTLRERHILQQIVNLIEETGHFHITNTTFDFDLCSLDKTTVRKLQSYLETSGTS
T cruzi inh: blocks replication of Trypanosoma cruzi | T. cruzi beta-gal in NIH3T3, luminescence, 90 h | inhibition, % (concentration not given with the values) | 1.4% of 300,000 active;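 active = mean inhibition across valid replicates above about 55%, limit read from the data; inconclusive = mean below that limit but half or more replicates reach it; inactive = mean below it, under half of replicates reach it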;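 also: signal also drops with host cell toxicity which is not excluded here; 0% = plate median of DMSO wells and 100% = zero luminescence signal; higher percent means less beta-gal luminescence so fewer parasites; stock transfer was 50 nL into about 50 µL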
Bfl-1 A1 inh: inhibitors of the anti-apoptotic protein A1, read as caspase activation | MEF A1-2A-BIM cells, Caspase-Glo 3/7 luminescence, 3 h; percent of clofoctol response, vehicle zero | caspase activation, % (concentration not given with the values) | 0.066% of 330,000 active;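 active = over half of replicate activation scores above 10%, or exactly half above 10 with the replicate mean above 10; inconclusive = replicate mean below 10 yet half the replicates above 10; inactive = over half of replicates below 10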;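 also: wells of about 30 µL received 50 nL stock; many hits fall short of the cut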
RanGTP-Impb inh: inhibitors of RanGTP-importin-beta interaction, primary screen, biochemical, FRET, CFP-Ran, YFP-importin-beta, homogeneous. AID 2216. cell-free CFP-Ran/YFP-importin-beta FRET ratio. 1.1% of 300,000 active. inhibition, % (concentration not given with the values);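 active = most replicates above 15%; inconclusive = exactly half above 15%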;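 also: 0% = DMSO wells and 100% = Ran loaded with GDP instead of GTP; wells of about 40 µL received 100 nL stock; the first replicate is given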
Ecoli rRNA inh OD600: second read-out of Ecoli rRNA inh, no call of its own (marks repeat the call); OD600 change, %; measured here: OD600 growth;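 optical density of the mix in the first replicate; 0 = DMSO median and -100 = no signal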
Ecoli rRNA inh RFP: recorded beside Ecoli rRNA inh, whose call it bears; RFP signal change, %; measured here: RFP humanized mutant strains;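 first replicate; 0 = DMSO median and -100 = no signal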
Numbers without * were called inactive.

For COc1ccc(CNC(=O)CS(=O)CC(=O)O)cc1OC (stereo not given) the results were Calb FLC 5, Beta apoptosis 2, Vif A3G -8%, Ecoli rRNA inh 7, AF4-AF9 inh 2.3, T cruzi inh -6, Bfl-1 A1 inh 0.6, RanGTP-Impb inh -3.6, Ecoli rRNA inh OD600 3 and Ecoli rRNA inh RFP -0.4.
CCOC(=O)N1CCC(NC(=O)c2ccc3snnc3c2)CC1 was read as Calb FLC -2, Beta apoptosis -1, Vif A3G 3%, Ecoli rRNA inh 2, AF4-AF9 inh -0.7, T cruzi inh -2, Bfl-1 A1 inh -0.8, RanGTP-Impb inh -1.9, Ecoli rRNA inh OD600 12 and Ecoli rRNA inh RFP -1.9.
`Cc1cccc(-c2noc(CN(C)C(=O)c3ccc4c(c3)OCO4)n2)c1` gave Calb FLC -1, Ecoli rRNA inh -2, AF4-AF9 inh -1.6, T cruzi inh 9, Bfl-1 A1 inh 0.1, RanGTP-Impb inh 0.0, Ecoli rRNA inh OD600 -10 and Ecoli rRNA inh RFP -0.5.
O=C(O)C1CC=CCC1C(=O)N1CCc2ccccc21 (stereo not given) was read as Calb FLC 9, Beta apoptosis -2, Vif A3G 23%, T cruzi inh -10, Bfl-1 A1 inh 1.7 and RanGTP-Impb inh 3.0.
Screening Cc1ccc(CN2CCN(Cc3cnc(N(C)C)s3)CC2CCO)o1 (stereo not given) returned Calb FLC 0, Beta apoptosis -33, Vif A3G inconclusive, Ecoli rRNA inh 6, AF4-AF9 inh 4.4, T cruzi inh -8, Bfl-1 A1 inh 0.5, RanGTP-Impb inh -0.9, Ecoli rRNA inh OD600 3 and Ecoli rRNA inh RFP -1.3.
For O=[N+]([O-])c1ccccc1S(=O)(=O)Oc1ccccc1/C=N/n1cnnc1 the results were Calb FLC 0, Beta apoptosis -5, Ecoli rRNA inh -4, AF4-AF9 inh 4.4, T cruzi inh -17, Bfl-1 A1 inh 1.7, RanGTP-Impb inh -2.5, Ecoli rRNA inh OD600 9 and Ecoli rRNA inh RFP -2.9.
Screening Cc1ccc(Cl)c2c1NC(=O)C2(O)CC(=O)c1ccc(F)cc1 (stereo not given) returned Calb FLC -4, Beta apoptosis -4, Vif A3G -2%, T cruzi inh -3, Bfl-1 A1 inh -0.3 and RanGTP-Impb inh 1.7.
For CCCOc1ccccc1C1NC(=O)NC(C)=C1C(=O)OCCOC (stereo not given) the results were Beta apoptosis -1, Vif A3G 0%, T cruzi inh 0, Bfl-1 A1 inh -0.9 and RanGTP-Impb inh 0.4.
COC(=O)N[C@H](c1ccccc1)[C@@]1(C)C[C@@H]1[C@@H](C)C(=O)Nc1ccc2ccccc2c1 was read as Calb FLC -8, Beta apoptosis 10, Ecoli rRNA inh -4, AF4-AF9 inh -2.7, T cruzi inh 8, Bfl-1 A1 inh 1.4, RanGTP-Impb inh -0.5, Ecoli rRNA inh OD600 -8 and Ecoli rRNA inh RFP -1.9.
`Cc1c(Cl)cccc1NC(=O)NCc1ccccn1` gave Calb FLC -5, Beta apoptosis -5, Vif A3G 2%, Ecoli rRNA inh 11, AF4-AF9 inh -0.2, T cruzi inh -5, Bfl-1 A1 inh 0.3, RanGTP-Impb inh 3.7, Ecoli rRNA inh OD600 8 and Ecoli rRNA inh RFP 0.8.
`O=C(NCc1ccncc1)C(=O)Nc1ccc2c(c1)OCO2` gave Calb FLC 1, Beta apoptosis -1, Vif A3G -3%, Ecoli rRNA inh 16, AF4-AF9 inh -1.8, T cruzi inh 3, Bfl-1 A1 inh 0.8, RanGTP-Impb inh -1.7, Ecoli rRNA inh OD600 11 and Ecoli rRNA inh RFP 5.6.
CCCCOc1ccc(NC(=O)[C@@H]2CCCN2C(=O)C2CCN(S(=O)(=O)c3ccc(C)cc3)CC2)cc1 was read as Calb FLC -5, Beta apoptosis 13, Vif A3G 16%, Ecoli rRNA inh 5, AF4-AF9 inh 0.7, T cruzi inh 15, Bfl-1 A1 inh 0.2, RanGTP-Impb inh 0.7, Ecoli rRNA inh OD600 8 and Ecoli rRNA inh RFP 5.2.
Screening COc1ccc(S(=O)(=O)N2CCCCC2)cc1NC(=O)C1CC1 returned Beta apoptosis -4, Vif A3G 1%, AF4-AF9 inh -1.2 and Bfl-1 A1 inh -0.5.
Screening CC(C)c1ccc2nc(SCC(=O)NCC3CCCO3)c(C#N)cc2c1 (stereo not given) returned Calb FLC 6, Beta apoptosis 6, Ecoli rRNA inh -1, AF4-AF9 inh 0.0, T cruzi inh 9, Bfl-1 A1 inh -0.1, RanGTP-Impb inh -2.0, Ecoli rRNA inh OD600 -2 and Ecoli rRNA inh RFP 1.5.
Screening CCN1CCN(C(=O)c2ccc(CS(=O)(=O)Cc3ccccc3C)o2)CC1 returned Calb FLC 4, Beta apoptosis -11, Vif A3G 0%, Ecoli rRNA inh 8, AF4-AF9 inh -1.8, T cruzi inh -4, Bfl-1 A1 inh 1.0, RanGTP-Impb inh 6.0, Ecoli rRNA inh OD600 9 and Ecoli rRNA inh RFP -4.5.
ClCC1=Nc2cccc3cccc(c23)N1 was read as Calb FLC -2, Beta apoptosis 3, T cruzi inh -26, Bfl-1 A1 inh -0.5 and RanGTP-Impb inh -0.4.
Screening CCOCCCn1c(-c2ccc(Cl)cc2)n[nH]c1=S returned Calb FLC 25, Beta apoptosis -7, Vif A3G -5%, T cruzi inh -11, Bfl-1 A1 inh 0.8 and RanGTP-Impb inh 0.8.
Screening COC(=O)C1=C(C)NC(=S)NC1c1ccc(-c2ccccc2C(=O)OC)o1 (stereo not given) returned Calb FLC 1, Beta apoptosis 3, Vif A3G -2%, Ecoli rRNA inh -5, AF4-AF9 inh 2.6, T cruzi inh 14, Bfl-1 A1 inh 0.8, RanGTP-Impb inh 0.1, Ecoli rRNA inh OD600 -2 and Ecoli rRNA inh RFP 0.8.
O=C(N/N=C/c1cc(Br)c(O)c(Br)c1)C1CC1 was read as Calb FLC 5, Beta apoptosis 1, Ecoli rRNA inh -8, AF4-AF9 inh 1.1, T cruzi inh -2, Bfl-1 A1 inh 1.2, RanGTP-Impb inh -2.4, Ecoli rRNA inh OD600 3 and Ecoli rRNA inh RFP -1.0.
`CCN(CC)S(=O)(=O)c1ccc2c(c1)[nH]c(=S)n2CC` gave Calb FLC 16, Beta apoptosis -1, Vif A3G -5%, Ecoli rRNA inh -3, AF4-AF9 inh -1.4, T cruzi inh 6, Bfl-1 A1 inh -0.9, RanGTP-Impb inh 1.3, Ecoli rRNA inh OD600 7 and Ecoli rRNA inh RFP 3.9.
Cc1ccsc1CCNC(=O)C1CCC(=O)N(CCc2cccc(F)c2)C1 (stereo not given) was read as Calb FLC 0, Beta apoptosis -2, Vif A3G 1%, Ecoli rRNA inh 3, AF4-AF9 inh -0.3, T cruzi inh 1, Bfl-1 A1 inh -0.5, RanGTP-Impb inh 1.3, Ecoli rRNA inh OD600 -1 and Ecoli rRNA inh RFP 3.1.
O=C(COC(=O)C1=COCCO1)Nc1ccc2c(c1)OCO2 was read as Calb FLC -2, Beta apoptosis 1, Vif A3G 5%, T cruzi inh 4, Bfl-1 A1 inh 0.1 and RanGTP-Impb inh 0.7.
`COc1ccc(C(=O)N2CCN(c3ncccn3)CC2)cc1` gave Calb FLC 2, Beta apoptosis -1, Vif A3G 8%, T cruzi inh 6, Bfl-1 A1 inh -0.2 and RanGTP-Impb inh 2.0.
`Cc1cc(-n2c(C)cc(C(=O)COc3ccc(Cl)cc3C(N)=O)c2C)no1` gave Beta apoptosis -1, Ecoli rRNA inh -10, AF4-AF9 inh 1.9, Bfl-1 A1 inh -0.7, Ecoli rRNA inh OD600 -10 and Ecoli rRNA inh RFP -0.9.
CN(CC(=O)Nc1ccc(Cl)cc1)C(=O)c1cccc(S(=O)(=O)N(C)C)c1 was read as Calb FLC -11, Beta apoptosis -7, T cruzi inh 3, Bfl-1 A1 inh 0.3 and RanGTP-Impb inh -3.4.
COc1cccc(CN(C)CC(=O)Nc2ccccc2C(=O)Nc2ccccc2)c1OC was read as Calb FLC inconclusive, Beta apoptosis -7, Vif A3G -12%, Ecoli rRNA inh -22, AF4-AF9 inh 1.4, T cruzi inh 9, Bfl-1 A1 inh -0.2, RanGTP-Impb inh -1.1, Ecoli rRNA inh OD600 -27 and Ecoli rRNA inh RFP 0.9.
Screening OCCC1CN(Cc2nc3ccccc3s2)CCN1C1CCCC1 (stereo not given) returned Calb FLC -12, Beta apoptosis -7, Ecoli rRNA inh 5, AF4-AF9 inh -6.5, T cruzi inh 10, Bfl-1 A1 inh 1.3, RanGTP-Impb inh -1.0, Ecoli rRNA inh OD600 6 and Ecoli rRNA inh RFP -4.3.
Screening Cc1nn(C)c(N)c1-c1ccccc1 returned Calb FLC 0, Beta apoptosis -2, Vif A3G -5%, Ecoli rRNA inh 4, AF4-AF9 inh 0.6, T cruzi inh -11, Bfl-1 A1 inh 0.5, RanGTP-Impb inh -1.1, Ecoli rRNA inh OD600 2 and Ecoli rRNA inh RFP -3.6.
CC(=O)Nc1ccccc1-c1nc2cc(C#N)c(C#N)cc2[nH]c1=O was read as Calb FLC -6, Beta apoptosis 5, Vif A3G -8%, Ecoli rRNA inh 7, AF4-AF9 inh 1.1, T cruzi inh -4, Bfl-1 A1 inh -0.9, RanGTP-Impb inh -0.4, Ecoli rRNA inh OD600 9 and Ecoli rRNA inh RFP -5.5.
For Cc1ccc(C(=O)CSc2nnc(C3CC3)n2C2CC2)s1 the results were Beta apoptosis 2, Vif A3G 9%, Ecoli rRNA inh 3, AF4-AF9 inh 1.3, Bfl-1 A1 inh 0.6, Ecoli rRNA inh OD600 3 and Ecoli rRNA inh RFP -10.0.
For CCNC(=S)N(CCc1c(C)[nH]c2ccc(C)cc12)Cc1cc(OC)c(OC)c(OC)c1 the results were Calb FLC 23, Beta apoptosis 0, Vif A3G 21%, Ecoli rRNA inh 0, AF4-AF9 inh 8.8, T cruzi inh 29, Bfl-1 A1 inh 1.7, RanGTP-Impb inh -1.9, Ecoli rRNA inh OD600 -7 and Ecoli rRNA inh RFP 2.7.
CCCCS(=O)(=O)N1CCCC(C(=O)Nc2ccc3c(c2)CCC3)C1 (stereo not given) was read as Calb FLC -9, Beta apoptosis -7, Ecoli rRNA inh 8, AF4-AF9 inh 1.2, T cruzi inh -3, Bfl-1 A1 inh -1.0, RanGTP-Impb inh 1.7, Ecoli rRNA inh OD600 12 and Ecoli rRNA inh RFP 3.7.
`COCCN(C(=O)CCC(=O)Nc1ccccn1)C(C(=O)NCCC(C)C)c1ccc(F)cc1` (stereo not given) gave Calb FLC -4, Beta apoptosis -3, Ecoli rRNA inh 0, AF4-AF9 inh -2.7, T cruzi inh -1, Bfl-1 A1 inh -0.2, RanGTP-Impb inh 8.9, Ecoli rRNA inh OD600 3 and Ecoli rRNA inh RFP -3.4.
CCCCOC(=O)Nc1sc2c(c1C(=O)OC)CCC2 was read as Calb FLC -1, Beta apoptosis 1, Vif A3G 5%, T cruzi inh 12, Bfl-1 A1 inh 0.4 and RanGTP-Impb inh 0.9.
Screening CC(C)C[C@H](NC(=O)[C@@H]1Cc2c([nH]c3ccccc23)C2c3ccccc3C(=O)N21)C(=O)N1CCC[C@@H]1C(=O)O (stereo not given in full) returned Calb FLC 2, Beta apoptosis -1, AF4-AF9 inh -2.2, T cruzi inh -5, Bfl-1 A1 inh -0.1 and RanGTP-Impb inh -3.0.

Not all compounds are listed; rates above refer to the full screens.
